Sfp inh: blocks B. subtilis Sfp PPTase activity | hit rate 3.5% among 310,000 | Potency, µM, for inactives: max response, negative = inhibition, hits mostly inhibitors | Biochemical Sfp PPTase activity, qHTS | Q9F4F7; active = well fitted inhibition curve with a large enough effect; inconclusive = small, poorly fitted or top-dose-only effect, or another doubt; inactive = no such curve, though single readings can be large or run the other way;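 also: the enzyme is Sfp with the accession as filed and its product quenches rhodamine fluorescence; potency is read from the fitted curve at half-maximal effect; 0% = enzyme reaction without inhibitor and -100% = no enzyme wells; top concentration of the series not given in the record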
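With Hepes-Na pH 7.6 buffer containing 10 mM MgCl2, Sfp (15 nM) modified BHQ-2-YbbR (12.5 uM) using rhodamine-CoA (5 uM). Two reads 30 minutes apart at 525/598 nm yielded each well's rate.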
gsp agonist: activates gsp, the McCune-Albright syndrome mutation; gsp mutant cells, cAMP HTRF, 30 min; control for the full effect not named in the record; Potency, µM (series often up to 76.9 µM), inactives show top-dose activation (cAMP increase), most hits filed as activators; hit rate 0.13% among 340,000; active = well fitted activation curve with a large enough effect; inconclusive = small, poorly fitted or top-dose-only effect, or another doubt; inactive = no such curve, though single readings can be large or run the other way; cell line not stated here;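 also: phosphodiesterase inhibitor Ro 20-1724 added with compounds to block cAMP breakdown; potency is read from the fitted curve at half-maximal effect; nearly all actives have a fitted effect of over 60% in size; about a fifth of the inactives were tested at one dose only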
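Cells stably selected in G418 were plated at 2000/well, grown 16-24 hr, then given compounds in DMSO with the PDE inhibitor […] (300 uM solution added) for 30 min at 37C; cAMP was read by HTRF.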
TRPV1 potentiator: enhances activation of the human vanilloid receptor TRPV1. Q8NER1. TRPV1-expressing cells, Fluo-8 calcium influx, capsaicin EC20 potentiation; host cell line not named in the record; control for the full effect not named in the record. potentiation, % at 8.33 µM. hit rate 0.02% among 320,000. AID 540277; active means potentiation above 80%; inconclusive means 30% to 80%; inactive means below 30%; also: 0% is about no effect
Target sequence (Q8NER1 whole entry, looked up): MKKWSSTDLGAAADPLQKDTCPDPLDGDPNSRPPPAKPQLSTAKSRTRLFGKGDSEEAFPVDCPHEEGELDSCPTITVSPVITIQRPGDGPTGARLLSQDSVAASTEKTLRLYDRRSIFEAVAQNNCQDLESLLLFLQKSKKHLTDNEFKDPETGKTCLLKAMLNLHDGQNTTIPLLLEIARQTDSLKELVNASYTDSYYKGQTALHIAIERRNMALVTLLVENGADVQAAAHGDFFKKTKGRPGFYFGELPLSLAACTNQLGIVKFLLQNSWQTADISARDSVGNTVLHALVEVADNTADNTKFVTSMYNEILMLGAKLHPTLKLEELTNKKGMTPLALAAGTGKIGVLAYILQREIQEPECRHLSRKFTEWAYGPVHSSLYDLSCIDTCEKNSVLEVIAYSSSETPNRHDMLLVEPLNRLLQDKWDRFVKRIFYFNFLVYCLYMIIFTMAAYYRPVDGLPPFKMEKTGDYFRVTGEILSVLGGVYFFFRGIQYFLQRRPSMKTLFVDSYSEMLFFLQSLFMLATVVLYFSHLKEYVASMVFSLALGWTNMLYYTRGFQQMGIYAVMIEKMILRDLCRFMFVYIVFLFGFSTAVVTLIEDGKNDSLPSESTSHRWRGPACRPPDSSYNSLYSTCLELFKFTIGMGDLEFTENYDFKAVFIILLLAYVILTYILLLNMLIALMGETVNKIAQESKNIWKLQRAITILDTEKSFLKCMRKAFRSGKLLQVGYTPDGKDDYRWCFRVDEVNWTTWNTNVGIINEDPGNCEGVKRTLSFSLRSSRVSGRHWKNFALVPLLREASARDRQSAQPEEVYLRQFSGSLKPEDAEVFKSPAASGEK
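Cells expressing TRPV1 were dye-loaded with Fluo-8 and read kinetically: 10 s baseline, 3 min after compound (agonist portion), then 2 min after EC20 capsaicin (allosteric enhancer portion). Calcium-bound dye fluorescence at 480/520 nm.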
CtBP-E1A blk: blocks the CtBP interaction with E1A; hit rate 0.49% among 340,000; AlphaScreen GST-E1A/His-CtBP binding, 1536-well; active compounds read low; control for the full effect not named in the record; AID 651724; activity change, % (test concentration not listed); in the data active means activity change below about -65%; inconclusive means about -30% to -65%; inactive means above about -30%; also: % is scaled to controls: 0 for no effect and ±100 for the full control effect
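In 5 uL wells, 23 nL compound meets equimolar GST-E1A and His-CtBP (5X stock 125 nM each) for 2 h, 37 °C. Beads (5X, 50 ug/mL) then 1 h, 37 °C, dark.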
ClpP mod: qHTS Assay for Activators of ClpP | AID 651965, 2013 | Potency, µM (series often up to 57.5 µM), without a hit: at the top dose activity change, negative = active | hit rate 1.9% among 340,000 | ATP-dependent Clp protease proteolytic subunit (Bacillus subtilis (strain 168)), P80244 | purified B. subtilis ClpP, FRET peptide cleavage, 20 min; active = well fitted falling curve with a large enough effect; inconclusive = small, poorly fitted or top-dose-only effect; inactive = no such curve, though single readings can be large or run the other way; also: potency is read from the fitted curve at half-maximal effect; the source files actives as falling curves though it sought activators and does not explain the sign; nearly all actives have a fitted effect of over 65% in size; many hits overshoot -100%
Target sequence (P80244 whole entry, looked up): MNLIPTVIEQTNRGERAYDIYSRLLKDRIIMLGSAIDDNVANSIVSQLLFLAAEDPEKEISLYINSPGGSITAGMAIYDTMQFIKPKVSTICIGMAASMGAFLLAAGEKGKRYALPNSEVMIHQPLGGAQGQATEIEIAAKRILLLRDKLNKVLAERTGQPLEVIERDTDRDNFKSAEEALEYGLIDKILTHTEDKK
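Purified B. subtilis ClpP, 10 microg/mL final in Tris/HCl pH8 with KCl, BSA, glycerol and Tween-20, cleaved an Abz/nitrotyrosine-quenched decapeptide. Fluorescence (ex 320, em 430) was read at 0 and 20 min at room temperature. Delta was normalized to 5.8 microM ADEP and DMSO/no-enzyme controls.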
Menin-MLL FL inh: inhibitors of human menin-MLL interaction, wild-type MLL peptide. FP activity change, % at 61.4 µM. Fluorescence polarization, fluorescein-MLL peptide displacement from menin. 290,000 tested, under 10 active; inconclusive = falling polarisation curve, or a change in total fluorescence; inactive = total fluorescence flat and polarisation flat or rising; no compound was filed as active; the % refers to the polarisation; negative = inhibition;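 also: % of control where 0% means no effect; inhibitors lower the polarisation; unlabelled MLL peptide was the positive control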
gsp antag: antagonists of gsp mutant (McCune-Albright syndrome); gsp-mutant cells, cAMP HTRF, 30 min; control for the full effect not named in the record; Potency, µM (top dose mostly 76.9 µM), for inactives: at the highest dose activity change, negative = inhibition, usual class: inhibitors; hit rate 0.4% among 340,000; active = falling curve of any shape with a large fitted effect; inconclusive = falling curve, mostly with a smaller effect; inactive = flat or rising curve; cell line not stated here;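 also: intracellular cAMP measured with PDE inhibitor Ro 20-1724 present during compound exposure; potency is read from the fitted curve at half-maximal effect; % is scaled to controls: 0 for no effect and ±100 for the full control effect; nearly all actives have a fitted effect of over 65% in size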
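HTRF cAMP measurement after 30 min RT detection following 30 min, 37C compound treatment alongside […] (added as 300 uM solution) in G418-selected cells seeded at 2000/well and grown 16–24 h.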
* hit, by the source's call; ? = inconclusive; / = not tested or not shown; [ ] = another dose, or the depositor's remark.

SMILES	Sfp inh	gsp agonist	TRPV1 potentiator	CtBP-E1A blk	ClpP mod	Menin-MLL FL inh	gsp antag
CC1=C(C(=O)Nc2ccccc2C)C(c2ccc(C)o2)N2C(=O)CSC2=N1 (configuration not stated)	7%	-8%	0	-10	-4.8%	8.2	-18%
CCc1nc(OCc2ccccc2)c2sc3nc4c(cc3c2n1)COC(C)(C)C4	9%	5%	6	-3	-13%	5.1	21%
Cn1cccc1C1NC(=O)c2c(sc3c2CCC(C(C)(C)C)C3)N1 (configuration not stated)	-74%	-41%[inhibitor]	-5	-15	-0.3%	3.9	1%
CC(C)(C)CC(=O)Nc1nnc(CCc2ccccc2)s1	13%	-58%[inhibitor]	-9	-1	/	-7.6	4%
Cn1c(O)c(N=NC(=O)CNC(=O)c2ccccc2)c2cc(Br)ccc21	6%	8%[15.4 µM]	-16	0	/	-1.0	-21%
CCS(=O)(=O)N1CCC(C(=O)Oc2ccc(Cl)cc2)CC1	11%	-3%[15.4 µM]	13	2	-0.2%	-3.3	11%
O=C(Nc1nnc(-c2ccco2)s1)C1CCN(S(=O)(=O)c2ccc(Cl)cc2)CC1	20%	-20%	-7	1	?	9.8	4%
CCOc1ccc(S(=O)(=O)Nc2ccc3c(c2)OCO3)cc1	9%	-4%	-7	-6	/	-3.1	-7%
Cc1cc(C)c(C(=O)COC(=O)c2cccc(S(=O)(=O)NCc3ccccc3)c2)cc1C	8%	?	6	4	-6.7%	-1.2	-7%
CC(C)(C)OC(=O)C[C@H]1C/C=C\C[C@@H](CC(=O)N[C@@H](CO)Cc2ccccc2)C(=O)N2CCC[C@@H]2COC1=O	/	/	/	6	-1.3%	/	8%
Cc1cc[n+]2cc(-c3cccc([N+](=O)[O-])c3)c(-c3cccc([N+](=O)[O-])c3)cc2c1	13%	?	0	7	-3.0%	1.9	26%
COc1ccccc1C1(O)CCN(CC(=O)Nc2c(C)nn(C)c2C)CC1	11%	5%	18	0	-0.7%	1.2	10%
COc1ccc(-c2cccc(NS(=O)(=O)c3cccc([N+](=O)[O-])c3)c2)nn1	/	-15%[15.4 µM]	20	-16	/	/	?
O=S(=O)(Nc1nc2ccccc2nc1Nc1ccc2c(c1)OCO2)c1ccc(F)cc1	22%	8%[15.4 µM]	1	-1	-2.8%	4.2	2%
Cc1cc2nc(C3CCCN(C(=S)Nc4ccccc4)C3)[nH]c2cc1C (configuration not stated)	-9%	-32%[inhibitor]	13	1	-0.7%	2.2	-2%
CCC1CCc2sc(C(=O)N(C)CC(=O)Nc3cccc(OC)c3)cc2C1 (configuration not stated)	/	-22%	4	1	1.3%	/	9%
CCOC(=O)c1ccc(NC(=O)CSc2nnc(COc3ccccc3OC)n2CC)cc1	13%	8%	3	7	0.4%	0.5	7%
Fc1ccc(C2CCCN2Cc2nc(Cc3ccccc3)no2)cc1 (configuration not stated)	-13%	5%	-14	/	-0.4%	0.7	3%
Cc1cccc(-n2cc(-c3ccccc3)[nH]c2=S)c1	-19%	-2%[15.4 µM]	8	-8	/	0.9	-4%
Cc1ccc(Cn2c(=N)n(CC(=O)c3ccc([N+](=O)[O-])cc3)c3ccccc32)cc1	35µM*	-19%	4	8	0.6%	-0.5	7%
O=C(NCCN1CCOC1=O)C1CCC(=O)N(CCc2ccc(Cl)cc2)C1 (configuration not stated)	4%	-31%[inhibitor]	2	12	0.9%	7.9	3%
Cc1ccc(OCCC(=O)OCC(=O)Nc2ccc3[nH]c(=O)[nH]c3c2)cc1	/	3%[15.4 µM]	17	-1	-1.9%	/	10%
N#Cc1c(NC(=O)c2cnccn2)sc2c1CCCC2	25µM*	1%	?	-21	1.6%	/	-7%
O=C(NCCN1CCOCC1)c1ccc2c(c1)N(Cc1ccccc1F)C(=O)CS2	5%	12%[15.4 µM]	0	1	0.8%	-1.9	16%
Cc1cc(C)c2nc(SCC(=O)N3CCCCC3)c(C#N)cc2c1	3%	8%	8	2	0.9%	0.1	-11%
Cc1ccccc1NC(=O)CSc1nnc2ccc(-c3ccncc3)nn12	/	6%[15.4 µM]	1	-5	/	/	4%
O=C1OCC2=C1C(c1ccc(F)cc1)CC(=O)N2c1ccc(F)cc1 (configuration not stated)	18%	/	-1	/	/	0.6	/
CNCC(O)Cn1c2c(c3ccccc31)CCCC2 (configuration not stated)	12%	-22%	2	-17	3.9%	0.3	0%
CCN(CC)S(=O)(=O)c1ccc(N2CCOCC2)c(NC(=O)C(C)Oc2ccc(F)cc2)c1 (configuration not stated)	/	3%	-17	1	-2.8%	/	4%
CC(=O)Oc1cccc(N2C(=O)C3C(C2=O)C2C=CC3C23CC3)c1 (configuration not stated)	10%	-1%	-17	3	-0.2%	3.7	10%
O=C(CN1CCN(Cc2ccccc2)CC1)NCc1ccccc1Cl	9%	7%	3	-8	/	-2.9	7%
Cc1cc(C(F)(F)F)nn1Cc1n[nH]c(=S)n1-c1ccc(F)cc1	-21%	8%	-3	4	-2.0%	4.7	?
O=c1[nH]nc(-c2ccc(F)cc2)cc1Cc1ccc(F)cc1	11%	-21%	3	-20	-3.5%	4.8	5%
Cc1c(O)ccc(NS(=O)(=O)c2ccccc2)c1C	13%	-2%[15.4 µM]	5	/	/	-2.4	3%
COc1ccc2c(c1OC)C(=O)N(c1cccc(C)c1)C2=O	3%	24%	-18	-3	-0.8%	-0.8	-9%
CCCCc1ccc(-c2csc(/C(C#N)=C\c3ccco3)n2)cc1	-1%	-1%[15.4 µM]	?	10	/	/	4%
Oc1c(C(Nc2nc3ccccc3s2)c2ccco2)ccc2cccnc12 (configuration not stated)	7%	0%	10	-16	-1.6%	-1.6	0%
COc1ccc(-n2c(SCC(=O)Nc3nccs3)nnc2-c2ccoc2C)cc1	11%	0%	1	-2	-1.5%	-0.9	-4%
CC(=O)Nc1c(C(=O)O)[nH]c2ccccc12	16%	-21%	-7	5	-4.1%	?	3%
COc1ccc(C(=O)Nc2nncs2)cc1S(=O)(=O)N1CC(c2ccccc2)CC1=O (configuration not stated)	-14%	?	/	-8	-1.2%	0.9	?
COC(=O)c1ccc(NS(=O)(=O)c2ccc3c(c2)n(C)c(=O)n3C)cc1	11%	3%[15.4 µM]	-6	0	0.1%	0.8	-15%
O=[N+]([O-])c1cccc(-n2nnnc2CN2CCCCCC2)c1	-11%	-4%	/	-6	2.6%	1.8	3%
CCc1ccc(-c2csc(NC(=O)C3=COCCO3)n2)cc1	/	-24%	-11	3	-3.5%	/	?
COC(=O)c1cc(C#N)c(Oc2ccc(OC)cc2)nc1C	-10%	-19%	6	3	-0.6%	3.1	3%
Cc1[nH]nc2c1C(c1cnn(C)c1)C(C#N)=C(N)O2 (configuration not stated)	12%	-13%[15.4 µM]	-10	0	/	-2.8	5%
O=Cc1cn(CCC(=O)O)nc1-c1cccc2ccccc12	11%	-9%	-7	4	/	-3.0	6%
Cc1ccc(C(=O)Nc2ccc(S(=O)(=O)NCc3ccco3)cc2)cc1	-19%	-2%	-20	7	-0.5%	7.6	7%
COCCCNC(=O)CN(Cc1ccccc1)S(=O)(=O)c1ccccc1	10%	?	-1	/	-2.4%	9.2	5%
CCCCCCC[C@@H](C/C=C/CCC(=O)O)OC	/	/	/	4	2.0%	/	-5%
Cc1cc(C)nc(N2C(=O)CC(Cc3ccccc3)C2=O)n1 (configuration not stated)	4%	-65%[inhibitor]	-1	6	-1.9%	3.4	11%
CC(=O)Nc1cccc(NC(=O)CSc2nc3ccccc3o2)c1	-7%	25%	7	2	-0.4%	-3.5	7%
CCCOc1ccc(/C(O)=C2/C(=O)C(=O)N(CCCOC)C2c2ccncc2)cc1 (configuration not stated)	2%	26%	21	8	-4.1%	4.4	0%
O=C(CCN1CCCCC1)Nc1cccc(Cl)c1	5%	-10%	3	0	0.7%	4.1	8%
Cc1nn(Cc2ccccc2)c(Cl)c1/C=C/C(=O)OC(C(=O)NC(N)=O)C(C)C (configuration not stated)	-12%	9%	17	-2	0.4%	-2.9	-14%
C=CCNC1=C(Cl)C(=O)N(c2cccc(Cl)c2Cl)C1=O	6%	-39%[inhibitor]	-25	11	-2.0%	0.9	-3%
O=C(COC(=O)Cc1c[nH]c2ccccc12)NC1CCS(=O)(=O)C1 (configuration not stated)	/	-5%[15.4 µM]	29	5	-1.9%	/	7%
O=C1CCCCC1(c1ccccc1)c1ccccc1	/	3%[15.4 µM]	/	-2	-0.4%	/	-7%
O=[N+]([O-])c1cn(-c2nc(-c3ccco3)cc(C(F)(F)F)n2)cn1	5%	2%	15	2	-3.9%	5.9	15%
CCN(CC(=O)Nc1ccc(NC(C)=O)cc1)C(=O)c1cccc(S(=O)(=O)N2CCCC2)c1	/	-1%[15.4 µM]	-34	5	-0.2%	/	3%
CC(C)c1ccc(CC(NC(=O)c2ccccc2)C(=O)NCC(=O)O)cc1 (configuration not stated)	18%	5%[15.4 µM]	1	-8	/	-10	6%

Continuation.
SMILES	Sfp inh	gsp agonist	TRPV1 potentiator	CtBP-E1A blk	ClpP mod	Menin-MLL FL inh	gsp antag
CC(C(=O)N1CCN(C(=O)c2ccco2)CC1)n1sc2ccccc2c1=O (configuration not stated)	13%	-24%	2	4	0.7%	-2.2	2%
O=C(COC(=O)c1ccc(Cl)nc1)NC(=O)c1ccc(OC(F)F)cc1	/	31%[15.4 µM]	2	10	/	/	-6%
COc1c(C(=O)Nc2c(C)n(C)n(-c3ccccc3)c2=O)ccc2ccccc12	-5%	5%	0	-1	0.7%	3.5	-1%
Cc1ccc(-c2nc3ccccc3c(=O)n2N)cc1	6%	?	1	/	0.9%	1.6	-1%
C/C(=N\NC(=O)CSCc1ccc([N+](=O)[O-])cc1)c1ccccc1O	5%	-19%	2	-5	-0.1%	3.1	-6%
C=CCOc1ccc(CNc2ccc3[nH]c(=O)[nH]c3c2)cc1	15%	2%[15.4 µM]	-1	-11	-0.4%	3.4	-26%
CN(C)C(CNC(=O)CNC(=O)c1ccc2ccccc2c1)c1ccccc1 (configuration not stated)	-2%	-68%[inhibitor]	2	3	/	-1.7	11%
CC(=O)NS(=O)(=O)c1ccc(N=c2ssc3c2-c2cc(C)c(C)cc2NC3(C)C)cc1	16%	-17%[15.4 µM]	-3	4	-1.1%	0.6	14µM*
